NPYLR7 ag = activates Aedes aegypti NPYLR7 receptor; HEK293T NPYLR7/Galpha15, GCaMP6s calcium fluorescence; activation, % at 10 µM; hit rate 0.15% among 270,000; in the data active = activation above about 40%;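 note: 0% = vehicle and 100% = reference agonist at the receptor; some compounds past the cut are filed as inactive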
NPYLR7 ag max-min = also measured in NPYLR7 ag; calls as there; activation, %; measured here: Max-Min RFU normalised activation; some inactives read as strong as hits;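 span of the calcium signal over five minutes; 0% = vehicle and 100% = native peptide agonist; compound fluorescence can raise it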
* hit, by the source's call; & = joins results of further samples. A portion of the library; rates above refer to the full screens.

The line under a structure holds: NPYLR7 ag, NPYLR7 ag max-min
- NC(=O)Cn1cc(CN2CCN(C3CCCC3)C(CCO)C2)c2ccccc21 (configuration not stated)
  13, 0
- Cc1nc(NCCNC(=O)Nc2cccc(Cl)c2)cc(N2CCOCC2)n1
  -1, -4
- COc1ccc(C(=O)Nc2nnc(Cc3ccccc3)s2)cc1
  4, 1
- Cn1cc(Cl)c(CN(Cc2ccsc2)CC2CCCO2)n1 (configuration not stated)
  22, 8
- Cc1ccc(NC(=O)CSc2nc(=O)n(CCN3CCOCC3)c3c2CCC3)c(C)c1
  0, -2
- COc1ccc(S(=O)(=O)N2CCCc3ccccc32)cc1
  2, 15
- Cc1cc(CS(=O)(=O)C(C)C(=O)Nc2ccc3c(c2)OCCCO3)no1 (configuration not stated)
  5, 2
- CC(C)CNC(=O)Cn1cnc2c1c(=O)n(C)c(=O)n2C
  14, 3
- Cc1ccccc1C1SC(C)C(=O)N1CC1CC1 (configuration not stated)
  12, 17
- Fc1ccc(N2CCC(NC3CCCc4c3cnn4-c3ccccn3)CC2)cc1 (configuration not stated)
  -2, -6
- O=c1cc(-c2cccs2)oc2ccc(Br)cc12
  0, 0
- Cc1ccc(CN(Cc2ccccc2)C(=O)CN(CCN2CCOCC2)S(=O)(=O)c2cccc(C(F)(F)F)c2)s1
  13, 6
- CC1CN(CC2CCCN2C(=O)Nc2nnc(C3CC3)s2)CC(C)O1 (configuration not stated)
  7, 2
- COc1ccc(-c2nnc3ccc(OCCNC(=O)c4ccccc4)nn23)cc1
  -10, -14
- FC(F)(F)c1ccc2sc(Nc3cn[nH]c3)nc2c1
  1, -7
- O=C1C=C(c2ccccc2)C(=O)N1CCc1ccncc1
  -5, -9
- CC(C)c1cc(Oc2ccc([N+](=O)[O-])cc2)nc(SCc2cccc(C(F)(F)F)c2)n1
  10, 16
- COc1cc(/C=C2/SC(=Nc3ccccc3)NC2=O)ccc1OC(=O)c1ccc([N+](=O)[O-])cc1
  -1, -5
- CCc1nc2ccc(C(=O)NCc3cccs3)cn2c1N(C=O)CCC(C)C
  -4, -9
- CC(C)NC(=O)CSc1nc2ccccc2n1C
  2, -2

The line under a structure holds: NPYLR7 ag, NPYLR7 ag max-min
- CCc1nc2n(n1)CC(NC1CC(C)OC1=O)CC2 (configuration not stated)
  0, 0
- CCCC(NC1CCN(C(=O)OCC)CC1)c1nccn1C (configuration not stated)
  1, 3
- CCn1nnc2c(Nc3ccc(S(N)(=O)=O)cc3)ncnc21
  -6, -3
- O=C(NNC(=O)C1CC1)c1ccc(=O)n(Cc2ccc(Cl)cc2)c1
  -10, -17
- COc1cccc(C(=O)Nc2c(C)nc3ccc(C)cn3c2=O)c1
  5, 2
- CCN(C(=O)/C=C/c1ccncc1)S(=O)(=O)c1ccc(C)cc1
  7, 5
- CC(NC(=O)CCN(Cc1ccccc1)c1nc(-c2ccccc2)nc2cc(Cl)ccc12)c1ccccc1 (configuration not stated)
  -1, 0
- Cc1csc(NC(=O)CC2CSc3nc4c(cnn4-c4ccccc4)c(=O)n32)n1 (configuration not stated)
  0, -2
- N#Cc1ccc(N2CCN(c3ncc(C(F)(F)F)cc3Cl)CC2)c(F)c1
  6, 2
- CCN(CC(=O)Nc1c(Cl)cccc1Cl)C(=O)c1nn(-c2ccccc2Cl)c(C)cc1=O
  1, 2
- COc1ccccc1C(=O)Nc1ccnn1C1CCN(C(=O)C2CC=CCC2)CC1 (configuration not stated)
  13, 6
- Cc1cccc(CNC(=O)NCc2cnn3ccccc23)c1
  6, 3
- CN(CC(=O)Nc1ccc(Cl)cc1)C(=O)CSc1nnc(N)s1
  -3, 1
- COc1ccc(CN2CCCn3cccc3C2c2ccc(Cl)c(Cl)c2)c(OC)c1OC (configuration not stated)
  -1, 2
- CC(c1nnc(-c2cccs2)o1)N1CCC(C(N)=O)CC1 (configuration not stated)
  4, 7
- O=C(NCCc1ccccc1Cl)c1coc(CN2CCN(c3ncccn3)CC2)n1
  2, 0
- O=C(NC1CCCCC1)N1CCn2cccc2C1c1ccc(F)cc1 (configuration not stated)
  11, 7
- O=[N+]([O-])c1ccc2[nH]c(O)c(N=Nc3ccc(Cl)c(Cl)c3)c2c1
  -4&0, -4&-7
- CCOC(=O)c1nn(-c2ccc(C(F)(F)F)cc2)c(=O)c2c(NC(=O)CC(C)(C)C)scc12
  4, 3
- O=C(CN1CCNCC1)N1CC[C@@H](c2ccc3c(c2)OCO3)[C@H](O)C1
  7, 4

The line under a structure holds: NPYLR7 ag, NPYLR7 ag max-min
- COc1ccc(S(=O)(=O)N2CCC(Cc3ccccc3)CC2)cc1N1CCN(C(=O)c2ccccc2OC(F)(F)F)CC1
  4, -1
- COc1cc2c(cc1OC)C(c1ccc(F)cc1)N(C(=O)c1c(Cl)cc(Cl)cc1Cl)CC2 (configuration not stated)
  11, 3
- COc1ccc2cc(C3CN(c4nccs4)CCO3)ccc2c1 (configuration not stated)
  7, 6
- O=C(/C=C/c1ccccc1Cl)NCc1ccc(-c2ncc(-c3ccc(F)cc3)[nH]2)cc1
  4, 2
- Cc1ccc(-n2c(SCC(=O)Nc3cc(C)on3)nc3c([nH]c4ccccc43)c2=O)cc1
  -1, -1
- O=C(Cc1ccc(OC(F)(F)F)cc1)NNC(=O)c1cn[nH]n1
  18, 8
- c1ccc2c(c1)CCN(C1CCCN(CCCn3cccn3)C1)C2 (configuration not stated)
  19, 6
- CN(CC(=O)Nc1ccccc1OC(F)F)CC1COc2ccccc2O1 (configuration not stated)
  12, 9
- COc1ccc(C(=O)Oc2ccccc2NC2=NS(=O)(=O)c3ccccc32)c(OC)c1
  -13, -6
- COc1ccc(Br)c(C(=O)Nc2cc(C(=O)N(C)Cc3ccccc3)ccc2N2CC3CC(C2)c2cccc(=O)n2C3)c1 (configuration not stated)
  9, 8
- CCOC(=O)C1(Cc2ccccc2F)CCCN(C(=O)c2cccc(-n3cccn3)c2)C1 (configuration not stated)
  8, -2
- CC1CCc2sc(-c3nn(CN4CCN(c5cnccn5)CC4)c(=S)o3)cc2C1 (configuration not stated)
  5, 8
- CCc1ccc(-c2cc3c(=O)[nH]nc(SCC(=O)NCc4cccc(OC)c4OC)n3n2)cc1
  -1, -5
- COC(=O)c1ncn(CCS(=O)c2cc(Cl)ccc2Cl)n1 (configuration not stated)
  -2, -3
- Cc1n[nH]c(C)c1CCCN(C)c1nccc(N2CCCC(O)C2)n1 (configuration not stated)
  -1, -6
- Nc1cc(-c2cccc(C(F)(F)F)c2)nn1-c1ccc(C(=O)NCCCCc2ccccc2)cc1
  -8, -15
- COc1ccc(C(=O)N2CCCC(CNC(=O)c3ccc(-c4ccccc4)cc3)C2)o1 (configuration not stated)
  4&10, 0&9
- COC(=O)C[C@H]1c2cccnc2C(=O)N(C)[C@@H]1C(=O)NC1CC1
  2, 5
- Cc1c(NCc2ccccn2)cccc1C(=O)N1CCCOCC1
  1, -3
- CC(Oc1ccc(Cl)cc1Cl)C(=O)NCCCn1ncccc1=O (configuration not stated)
  -10, -17

3 of the compounds above, as labelled records:
Nc1cc(-c2cccc(C(F)(F)F)c2)nn1-c1ccc(C(=O)NCCCCc2ccccc2)cc1
  NPYLR7 ag: -8	NPYLR7 ag max-min: -15
COc1ccc(C(=O)N2CCCC(CNC(=O)c3ccc(-c4ccccc4)cc3)C2)o1 (configuration not stated)
  NPYLR7 ag: 4&10	NPYLR7 ag max-min: 0&9
COC(=O)C[C@H]1c2cccnc2C(=O)N(C)[C@@H]1C(=O)NC1CC1
  NPYLR7 ag: 2	NPYLR7 ag max-min: 5

Complete entries, quoted from the list. Order of values: NPYLR7 ag	NPYLR7 ag max-min
Shown for COc1ccc(Br)c(C(=O)Nc2cc(C(=O)N(C)Cc3ccccc3)ccc2N2CC3CC(C2)c2cccc(=O)n2C3)c1 (configuration not stated) : 9	8
Shown for c1ccc2c(c1)CCN(C1CCCN(CCCn3cccn3)C1)C2 (configuration not stated) : 19	6
Shown for CC(Oc1ccc(Cl)cc1Cl)C(=O)NCCCn1ncccc1=O (configuration not stated) : -10	-17
Shown for COc1cc2c(cc1OC)C(c1ccc(F)cc1)N(C(=O)c1c(Cl)cc(Cl)cc1Cl)CC2 (configuration not stated) : 11	3

Other compounds follow.
The line under a structure holds: NPYLR7 ag, NPYLR7 ag max-min
- CCOC(=O)C1CCCN(CC(=O)N2N=C(c3ccc(F)cc3)CC2c2cccn2C)C1 (configuration not stated)
  16, 13
- CN1CCN(S(=O)(=O)c2ccc(Cl)c(NC(=O)c3cc(F)cc(F)c3)c2)CC1
  0, -1
- Cc1c(C(C)NCCCc2ccccc2)cnn1-c1cccc(F)c1 (configuration not stated)
  2, -2
- COC(=O)CCc1c(C)nn(-c2ccc(C(=O)Nc3ccc(Oc4ccccc4)cc3)cc2)c1C
  2, -2
- CCC1CCCCN1C(=O)c1cc(-c2ccc(Cl)cc2)n[nH]1 (configuration not stated)
  1, 2
- CCNC(=O)NC(=O)C(NCc1ccccc1C)c1ccccc1 (configuration not stated)
  8, 1
- COc1ccccc1-c1cc(C(=O)Nc2ccc(C)c(C)c2)n2nc(C(C)(C)C)cc2n1
  10, 7
- CN(C(=O)c1ccc(=O)[nH]n1)C1c2ccccc2-c2ccccc21
  -3&-1, -6&-2
- CC(C)(C)c1ccc(C(=O)N2CCCC(C(=O)NC3CCCC[C@H]3NC(=O)c3ccccc3)C2)cc1 (some centres not stated)
  -1, 3
- Cc1ccc(OCC(=O)N2CCC(C(=O)Nc3ccc4c(c3)OCO4)CC2)cc1C
  9, 8
- CC(=O)Nc1ccc2nc(CN(C)C(C)c3ccccn3)ccc2c1 (configuration not stated)
  3, 4
- Cc1ccc(C(O)=C2C(=O)C(=O)N(CCCN(C)C)C2c2ccco2)cc1 (configuration not stated)
  1, 0
- CCOC(=O)C(C)Oc1cc(Br)c(C=O)cc1OC (configuration not stated)
  -15, -21
- CC(=O)N(C)c1nc(CS(=O)(=O)CC(=O)N(C)C2CCC(C)CC2)cs1 (configuration not stated)
  -2, -8
- COc1ccc(Br)c(C(=O)Nc2ccncc2)c1
  1, 1
- CCOc1ccccc1Oc1coc2c3c(ccc2c1=O)OCN(CCCOC)C3
  -5, -10
- COc1ccc2nc(N(Cc3cccnc3)C(=O)C3COc4ccccc4O3)sc2c1 (configuration not stated)
  -8, -9
- Cc1cccc(NC2=NC(c3cccnc3)n3c(nc(C)cc3=O)N2)c1 (configuration not stated)
  5, 4
- COc1ccc(C=CC(=O)c2cccnc2)cc1O
  -2, -3
- CCCN(C)c1nc(SCc2cccc(C(=O)NCC3CC3)c2)nc(C)c1C
  -5, -3

The line under a structure holds: NPYLR7 ag, NPYLR7 ag max-min
- O=C1/C(=C/c2ccc(-c3cc(Cl)ccc3Cl)o2)C=C(c2ccccc2)N1c1ccccc1Cl
  10, 7
- CCCN1C(=O)/C(=C2\SC(=S)N(CC(=O)O)C2=O)c2ccccc21
  3, 11
- CC(C)c1nnc(CN2CCN(S(=O)(=O)c3ccc(C(C)(C)C)cc3)CC2)o1
  -7, -6
- O=S1(=O)N=C(c2cccc(Cl)c2)Nc2ccccc21
  20, 18
- Cc1cccc(NS(=O)(=O)c2ccc(S(=O)(=O)N(C)C)cc2)c1C
  -2, -2
- Cn1nnc2c(=O)n(CC(=O)N3CCCCCC3)cnc21
  1, 10
- Cc1nc(-c2cc(C(=O)N(C)Cc3ccc4c(c3)OCO4)n(C)c2)cs1
  -3, -4
- COc1cc(N(C)C)ccc1CN1CCN(CCO)CC1
  17, 13
- Clc1cccc(CN2CCCC(Cn3ccnc3)C2)c1 (configuration not stated)
  15, 4
- O=C(Nc1ccc2c(c1)OCCO2)c1cccc(S(=O)(=O)N2CCOCC2)c1
  -13, -20
- Cc1csc(SCC(=O)NC(C)C(c2ccccc2)N2CCOCC2)n1 (configuration not stated)
  15, 7
- O=C(Nc1ccc(-n2cncn2)c(C(F)(F)F)c1)C1CC1
  0, -4
- CC(NC(=O)COC(=O)c1c(O)cc(F)cc1F)c1ccc(Cl)c(Cl)c1 (configuration not stated)
  -3, -6
- Cc1ccc2nc(C)c(NC(=O)c3ccccn3)c(=O)n2c1
  -2, -1
- COC(=O)C1=C(C)N=c2sc(=Cc3ccc(C)o3)c(=O)n2C1c1ccc(C(C)C)cc1 (configuration not stated)
  -2, -9
- Cc1cc(N2CCN(C(=O)CCc3nc4sc5c(c4c(=O)[nH]3)CCC5)CC2)nc(C(C)C)n1
  -3, -7
- OC(COc1ccc2ccccc2c1Cl)Cn1ccnc1 (configuration not stated)
  -6, -7
- CCCCOc1ccccc1-c1cc2c(SCC(=O)Nc3ccccc3)nccn2n1
  -2, -7
- NC(=O)C1CCCN1C(=O)CCC(=O)c1csc2ccccc12 (configuration not stated)
  2, -3
- CN(C)CCN(Cc1ccccc1OS(=O)(=O)c1ccc(F)cc1)C(=O)CC(C)(C)C
  20, 10

Given with tabs: part of the list above
canonical_smiles	NPYLR7 ag	NPYLR7 ag max-min
CC(C)c1nnc(CN2CCN(S(=O)(=O)c3ccc(C(C)(C)C)cc3)CC2)o1	-7	-6
O=S1(=O)N=C(c2cccc(Cl)c2)Nc2ccccc21	20	18
Cc1cccc(NS(=O)(=O)c2ccc(S(=O)(=O)N(C)C)cc2)c1C	-2	-2
Cn1nnc2c(=O)n(CC(=O)N3CCCCCC3)cnc21	1	10

(listing goes on)
The line under a structure holds: NPYLR7 ag, NPYLR7 ag max-min
- CC(=O)NCCC1CCCCN1C(=O)c1cc(COc2cc(C)ccc2C)on1 (configuration not stated)
  -4, -4
- O=S(=O)(NC1CCN(C2CC2)CC1)c1cc(Cl)cc(Cl)c1
  -3, -2
- Cc1ccc(C)c(/C=C2\NC(=S)NC2=O)c1
  10, 13
- Cc1ccc(C(=O)N2CCSCC2)cc1NC(C)C
  -22, -25
- COc1ccc(CC(=O)NCCc2cc3ccc(C)c(C)c3[nH]c2=O)cc1OC
  7, 4

Compound activity as filed in PubChem.
